PNC inhibitor: inhibitors of perinucleolar compartment assembly | PC3M PTB-GFP, PNC prevalence imaging, 16 h; active compounds read low | activity change (PNC), negative = inhibition, % at 10 µM | 140,000 compounds, 3.1% hits | AID 2417;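 active means readout at or below -70, meaning at least 70% loss of cells showing the perinucleolar compartment, a nuclear body marking cancer cells; inconclusive means readout between -30 and a set limit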;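 further: plate controls were DMSO wells for no effect and camptothecin positive control wells for full effect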
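Read-out is percentage of cells bearing a perinucleolar compartment, from automated 20x imaging of fixed, Hoechst-stained PC3M PTB-GFP cells. Cells were seeded 4 h, then exposed 16 h to compound (23 nl of library stock) in duplicate plates.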
IMPase cell inh: IMPase inhibition in cells. P97697. CHO-M1 cells, IP1 accumulation, HTRF TR-FRET ratio. inhibition (IP1 accumulation), % at 46.1 µM. 120,000 tested, under 10 active; active means well fitted curve in the direction sought with a large enough effect in the signal ratio, not every such curve was filed as active; inconclusive means small, poorly fitted or top-dose-only effect, or a change in a side signal; inactive means no such curve, though single readings can be large or run the other way; the % refers to the signal ratio;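 further: cells stimulated with carbachol in lithium chloride buffer; plate controls were DMSO basal wells for no effect and reference inhibitor wells for full effect; higher means more IMPase inhibition seen as more IP1 and lower FRET ratio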
Target sequence (P97697 whole entry, looked up): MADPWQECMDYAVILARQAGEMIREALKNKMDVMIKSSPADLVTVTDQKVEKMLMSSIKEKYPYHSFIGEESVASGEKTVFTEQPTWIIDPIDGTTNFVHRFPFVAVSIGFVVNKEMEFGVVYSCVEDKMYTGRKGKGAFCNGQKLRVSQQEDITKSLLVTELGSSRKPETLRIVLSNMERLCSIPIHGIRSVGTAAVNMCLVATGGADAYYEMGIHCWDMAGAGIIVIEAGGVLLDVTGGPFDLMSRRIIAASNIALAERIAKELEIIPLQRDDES
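The IP-One HTRF competitive assay in carbachol-stimulated CHO-M1 cells quantifies cellular IP1. Compounds spanned up to 46 uM final, and activity is expressed as AC50 from concentration-response fits of the ratio and donor data.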
ALOX12 inhib: inhibitors of human 12-lipoxygenase (ALOX12) | 150,000 compounds, 0.12% hits | purified 12-hLO, xylenol orange hydroperoxide absorbance | AID 1452 | Potency, µM (highest dose often 57.1 µM), for the others: at the top dose activity change, negative = inhibition, actives largely listed as inhibitors; active means well fitted inhibition curve with a large enough effect; inconclusive means small, poorly fitted or top-dose-only effect; further: potency means the concentration at half of the fitted maximal effect; nearly all actives have a fitted effect of over 55% in size; many of its hits are not listed in these tables
Target sequence (P18054 whole entry, looked up): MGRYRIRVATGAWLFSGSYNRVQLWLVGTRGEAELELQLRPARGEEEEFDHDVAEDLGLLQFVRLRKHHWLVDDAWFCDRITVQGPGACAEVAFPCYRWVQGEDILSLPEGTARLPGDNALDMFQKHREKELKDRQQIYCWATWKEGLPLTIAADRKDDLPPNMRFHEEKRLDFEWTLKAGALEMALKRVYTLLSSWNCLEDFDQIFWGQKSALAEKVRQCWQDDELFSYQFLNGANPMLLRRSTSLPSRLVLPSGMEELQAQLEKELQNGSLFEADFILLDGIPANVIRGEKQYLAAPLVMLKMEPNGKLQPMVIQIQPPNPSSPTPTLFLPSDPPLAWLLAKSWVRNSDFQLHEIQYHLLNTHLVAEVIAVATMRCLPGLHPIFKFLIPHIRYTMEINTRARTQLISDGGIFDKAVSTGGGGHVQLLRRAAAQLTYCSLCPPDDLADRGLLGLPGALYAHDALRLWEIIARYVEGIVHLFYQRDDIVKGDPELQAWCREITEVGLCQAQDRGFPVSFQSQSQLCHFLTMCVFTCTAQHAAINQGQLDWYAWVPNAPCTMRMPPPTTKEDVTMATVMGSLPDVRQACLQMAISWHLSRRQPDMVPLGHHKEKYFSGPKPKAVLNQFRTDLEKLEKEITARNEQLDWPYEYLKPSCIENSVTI
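Lipoxygenase turnover measured by absorbance at 573 and 405 nm after Fe-XO development. Human 12hLO 150 nM, arachidonate 40 uM, pH 7.0 Hepes buffer with detergent; 15 min compound preincubation, 30 min reaction.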
The depositor's hits bear a star; ? = inconclusive; [ ] = another dose, or the depositor's remark. Unless noted, on the % scale 0 is the no-effect control and ±100 the full control effect.

[1] Cc1nc2cc(S(=O)(=O)N3CCC(C(=O)O)CC3)ccc2n1C1CCCC1
  PNC inhibitor: 14 | IMPase cell inh: -14 | ALOX12 inhib: -1%

[2] COc1cc(C=O)ccc1Oc1nnnn1-c1ccc(C(N)=O)cc1
  PNC inhibitor: -16 | IMPase cell inh: 0 | ALOX12 inhib: 0%

[3] CCC1(O)c2ccccc2-c2ncccc21 (configuration not stated)
  PNC inhibitor: -4 | IMPase cell inh: 5 | ALOX12 inhib: 5%

[4] CCOC(=O)C(=O)Nc1ccc(S(=O)(=O)N2CCOCC2)cc1OC
  PNC inhibitor: 22 | IMPase cell inh: -4 | ALOX12 inhib: 4%

[5] O=C(CN1CCN(C(=O)c2ccccc2)CC1)Nc1ncc(Br)cc1Br
  PNC inhibitor: 1 | IMPase cell inh: 4 | ALOX12 inhib: 1%

[6] CCOc1cc(NC(=S)Nc2cccc(C)c2)c(OCC)cc1NC(=O)CC(C)C
  PNC inhibitor: ? | IMPase cell inh: 3 | ALOX12 inhib: -19%

[7] Cc1nccc2[nH]c(=O)c(C(=O)NCCCN(C)C3CCCCC3)cc12
  PNC inhibitor: -21 | IMPase cell inh: -5 | ALOX12 inhib: -5%

[8] CCOC(=O)C1=C(C)NC2=C(C(=O)CC(c3ccc(OC)c(OC)c3)C2)C1c1ccc(C)o1 (configuration not stated)
  PNC inhibitor: ? | IMPase cell inh: 0 | ALOX12 inhib: -4%

[9] CSc1nc2nccc(-c3ccc(Oc4ccccc4)cc3)n2n1
  PNC inhibitor: 0 | IMPase cell inh: 4 | ALOX12 inhib: -4%

[10] Cc1ccccc1NC(=S)NC(=O)c1cc(-c2ccccc2)nc2ccccc12
  PNC inhibitor: ? | IMPase cell inh: 1 | ALOX12 inhib: ?

Records 8 through 10 from above:
[8] CCOC(=O)C1=C(C)NC2=C(C(=O)CC(c3ccc(OC)c(OC)c3)C2)C1c1ccc(C)o1 (configuration not stated)
  PNC inhibitor: ? | IMPase cell inh: 0 | ALOX12 inhib: -4%

[9] CSc1nc2nccc(-c3ccc(Oc4ccccc4)cc3)n2n1
  PNC inhibitor: 0 | IMPase cell inh: 4 | ALOX12 inhib: -4%

[10] Cc1ccccc1NC(=S)NC(=O)c1cc(-c2ccccc2)nc2ccccc12
  PNC inhibitor: ? | IMPase cell inh: 1 | ALOX12 inhib: ?

Next section:
[11] Nc1nc(Br)c2c(F)cccc2c1-c1ccc(Cl)cc1
  PNC inhibitor: 47 | IMPase cell inh: 1 | ALOX12 inhib: 5%

[12] O=C(CCn1c(=S)[nH]c2cc3c(cc2c1=O)OCO3)N1CCc2ccccc2C1
  PNC inhibitor: -14 | IMPase cell inh: -7 | ALOX12 inhib: 5%

[13] COC(=O)c1ccc2c(c1)C(=O)N(C1CCCCC1)C2=O
  PNC inhibitor: 37 | IMPase cell inh: -5 | ALOX12 inhib: 0%

[14] Cc1cc(-c2ccccc2)nc(SCc2ccc(C(=O)O)o2)n1
  PNC inhibitor: 6 | IMPase cell inh: 2 | ALOX12 inhib: 0%

[15] CC(C)(C)c1ccc(C2(C)NC(=O)N(CC(=O)c3ccc[nH]3)C2=O)cc1 (configuration not stated)
  PNC inhibitor: 41 | IMPase cell inh: -3 | ALOX12 inhib: -3%

[16] Cc1ccc(C2=NNC(C(O)C(O)C(O)C(C)O)S2)cc1 (configuration not stated)
  PNC inhibitor: 60 | IMPase cell inh: -2 | ALOX12 inhib: 4%

[17] CC(C)Sc1nc(N)c2c3c(sc2n1)CN(C)CC3
  PNC inhibitor: 29 | IMPase cell inh: 7 | ALOX12 inhib: 1%

[18] CC(=O)Nc1cc2c(cc1NC(=O)c1cnccn1)OCCO2
  PNC inhibitor: -5 | IMPase cell inh: -2 | ALOX12 inhib: 5%

[19] CC(=O)Cc1nsc(NC(=O)c2ccco2)n1
  PNC inhibitor: -14 | IMPase cell inh: -8 | ALOX12 inhib: 3%

[20] CC(=O)N1CCN(c2nc(C)nc3sc4c(c23)CCC(C)C4)CC1 (configuration not stated)
  PNC inhibitor: -24 | IMPase cell inh: 8 | ALOX12 inhib: 0%

[21] CCOC(=O)c1sc(=S)n2c1[nH]c(=O)c1ccc(C(=O)OC)cc12
  PNC inhibitor: 4 | IMPase cell inh: -1 | ALOX12 inhib: -4%

[22] CCOc1ccc(-c2nn(-c3ccccc3)cc2/C=C(\C#N)S(=O)(=O)c2ccccc2)cc1C
  PNC inhibitor: -11 | IMPase cell inh: -1 | ALOX12 inhib: 1%

[23] CC(C)Nc1nc(N(c2ccccc2)c2ccccc2)nc(-n2ccnc2)n1
  PNC inhibitor: -5 | IMPase cell inh: 5 | ALOX12 inhib: -2%

[24] CCCOC(=O)c1cccc(NC(=O)C(C)(C)C)c1
  PNC inhibitor: ? | IMPase cell inh: 1 | ALOX12 inhib: 3%

[25] Nc1ccccc1Oc1ncc(C(F)(F)F)cc1Cl
  PNC inhibitor: 10 | IMPase cell inh: -3 | ALOX12 inhib: 2%

[26] Cn1c(=O)c2[nH]c(-c3cccnc3)nc2n(C)c1=O
  PNC inhibitor: -11 | IMPase cell inh: -13 | ALOX12 inhib: -1%

[27] Cc1nn(-c2ccccc2)c2[nH]c(=O)c(CNCc3ccc4c(c3)OCO4)cc12
  PNC inhibitor: 11 | IMPase cell inh: ? | ALOX12 inhib: -8%

[28] CC(C)C(C(=O)OCC(=O)c1ccc2c(c1)NC(=O)CO2)N1C(=O)c2ccccc2C1=O (configuration not stated)
  PNC inhibitor: 0 | IMPase cell inh: 7 | ALOX12 inhib: -2%

[29] CSc1nc(Oc2ccc3ccccc3c2)c2sccc2n1
  PNC inhibitor: 7 | IMPase cell inh: 29[1.84 µM] | ALOX12 inhib: 1%

[30] Cc1ccc(-c2nnc(SCC(=O)Nc3nc4c(s3)CCCC4)n2C)cc1
  PNC inhibitor: 9 | IMPase cell inh: -1 | ALOX12 inhib: -7%

Of the compounds above, these contain a Cl atom.
[11] Nc1nc(Br)c2c(F)cccc2c1-c1ccc(Cl)cc1
  PNC inhibitor: 47 | IMPase cell inh: 1 | ALOX12 inhib: 5%

[25] Nc1ccccc1Oc1ncc(C(F)(F)F)cc1Cl
  PNC inhibitor: 10 | IMPase cell inh: -3 | ALOX12 inhib: 2%

Returning to the listing, repeating the two entries before the break.
[29] CSc1nc(Oc2ccc3ccccc3c2)c2sccc2n1
  PNC inhibitor: 7 | IMPase cell inh: 29[1.84 µM] | ALOX12 inhib: 1%

[30] Cc1ccc(-c2nnc(SCC(=O)Nc3nc4c(s3)CCCC4)n2C)cc1
  PNC inhibitor: 9 | IMPase cell inh: -1 | ALOX12 inhib: -7%

[31] CC(C)NC(=O)N(O)C1N(Cc2ccc3c(c2)OCO3)C(=S)SC1(C)C (configuration not stated)
  PNC inhibitor: -27 | IMPase cell inh: 18[9.22 µM] | ALOX12 inhib: -14%

[32] O=c1cc(C23CC4CC(CC(C4)C2)C3)[nH][nH]1
  PNC inhibitor: -2 | IMPase cell inh: -7 | ALOX12 inhib: -7%

[33] CCCCOc1ncnc2c1[nH]c1ccc(OCC)cc12
  PNC inhibitor: 9 | IMPase cell inh: -14 | ALOX12 inhib: -2%

[34] O=C(Nc1ccc(S(=O)(=O)N2CCc3ccccc3C2)cc1)c1ccccc1
  PNC inhibitor: 4 | IMPase cell inh: 5 | ALOX12 inhib: -3%

[35] Cc1c(NC(=S)NC(=O)C(c2ccccc2)c2ccccc2)cccc1C(=O)O
  PNC inhibitor: -5 | IMPase cell inh: 6 | ALOX12 inhib: -29%

[36] O=C(COc1ccc(Cl)cc1)NCCSc1ccccc1
  PNC inhibitor: 9 | IMPase cell inh: 4 | ALOX12 inhib: 1%

[37] CCOC(=O)c1c(NC(=O)CSc2nnnn2-c2ccccc2)sc2c1CCC(C)C2 (configuration not stated)
  PNC inhibitor: 52 | IMPase cell inh: -1 | ALOX12 inhib: 3%

[38] CCCCCNCc1cccc(Br)c1
  PNC inhibitor: 25 | IMPase cell inh: -7 | ALOX12 inhib: 1%

[39] COc1ccc(C(=O)N2CCN=C2SCc2cccnc2)cc1OC
  PNC inhibitor: 14 | IMPase cell inh: 5 | ALOX12 inhib: -3%

[40] CCOc1ccccc1-c1cc(C(=O)N/N=C/c2ccc3c(c2)OCO3)c2ccccc2n1
  PNC inhibitor: ? | IMPase cell inh: 15 | ALOX12 inhib: -10%

[41] COCCn1c(=NC(=O)CSC(C)=O)sc2cc(F)ccc21
  PNC inhibitor: ? | IMPase cell inh: -2 | ALOX12 inhib: -2%

[42] COc1ccc(-c2cc3ccccc3oc2=O)cc1NC(=O)c1ccc([N+](=O)[O-])o1
  PNC inhibitor: 67 | IMPase cell inh: 1 | ALOX12 inhib: -3%

[43] COc1ccc(-c2ccc(C#N)c(SCC(=O)Nc3sc4c(c3C#N)CCC4)n2)cc1OC
  PNC inhibitor: 18 | IMPase cell inh: 6 | ALOX12 inhib: 4%

[44] O=C(CSc1ccccc1Cl)N1CCC(c2nc3ccccc3s2)CC1
  PNC inhibitor: -7 | IMPase cell inh: 5 | ALOX12 inhib: -9%

[45] OCC1CCCN1C(=S)Nc1ccccc1 (configuration not stated)
  PNC inhibitor: 0 | IMPase cell inh: 1 | ALOX12 inhib: 0%

[46] CSc1cccc(NC(=O)C(C)NS(=O)(=O)c2ccc(F)cc2)c1 (configuration not stated)
  PNC inhibitor: 38 | IMPase cell inh: -7 | ALOX12 inhib: -4%

[47] COc1ccccc1NC(=O)C1=C(C)Nc2nnnn2C1c1ccncc1 (configuration not stated)
  PNC inhibitor: 34 | IMPase cell inh: -15 | ALOX12 inhib: -1%

[48] COc1ccc(/C(O)=C2\C(=O)C(=O)N(c3cc(C)on3)C2c2ccc(OC)c(OC)c2)cc1OC (configuration not stated)
  PNC inhibitor: 1 | IMPase cell inh: -6 | ALOX12 inhib: 14%

[49] COc1ccc(Cl)cc1N1C(=O)/C(=C\c2sccc2C)N=C1SCC(=O)NC1CC1
  PNC inhibitor: -11 | IMPase cell inh: -1 | ALOX12 inhib: -22%

[50] O=C(Nc1ccc2c(c1)OCCO2)c1cc(-c2ccccc2)nc2ccccc12
  PNC inhibitor: 12 | IMPase cell inh: -1 | ALOX12 inhib: -1%

Retrieved by structure from above:
[7] Cc1nccc2[nH]c(=O)c(C(=O)NCCCN(C)C3CCCCC3)cc12
  PNC inhibitor: -21 | IMPase cell inh: -5 | ALOX12 inhib: -5%

[10] Cc1ccccc1NC(=S)NC(=O)c1cc(-c2ccccc2)nc2ccccc12
  PNC inhibitor: ? | IMPase cell inh: 1 | ALOX12 inhib: ?

[45] OCC1CCCN1C(=S)Nc1ccccc1 (configuration not stated)
  PNC inhibitor: 0 | IMPase cell inh: 1 | ALOX12 inhib: 0%

[30] Cc1ccc(-c2nnc(SCC(=O)Nc3nc4c(s3)CCCC4)n2C)cc1
  PNC inhibitor: 9 | IMPase cell inh: -1 | ALOX12 inhib: -7%

High-throughput results from PubChem.

Only part of the results is shown; rates above refer to the full screens.
